From PubChem BioAssay
RecA intein inh: blocks M. tuberculosis RecA intein splicing | cell-free RecA intein splicing, fluorescence | inhibition, %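 (about 9 µM by stock and volumes)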 | hit rate 0.75% among 290,000 | AID 2221; in the data active means inhibition above about 30%;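 further: 0% = vehicle wells and 100% = reference inhibitor control wells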
Target sequence (P9WHJ3 whole entry, looked up): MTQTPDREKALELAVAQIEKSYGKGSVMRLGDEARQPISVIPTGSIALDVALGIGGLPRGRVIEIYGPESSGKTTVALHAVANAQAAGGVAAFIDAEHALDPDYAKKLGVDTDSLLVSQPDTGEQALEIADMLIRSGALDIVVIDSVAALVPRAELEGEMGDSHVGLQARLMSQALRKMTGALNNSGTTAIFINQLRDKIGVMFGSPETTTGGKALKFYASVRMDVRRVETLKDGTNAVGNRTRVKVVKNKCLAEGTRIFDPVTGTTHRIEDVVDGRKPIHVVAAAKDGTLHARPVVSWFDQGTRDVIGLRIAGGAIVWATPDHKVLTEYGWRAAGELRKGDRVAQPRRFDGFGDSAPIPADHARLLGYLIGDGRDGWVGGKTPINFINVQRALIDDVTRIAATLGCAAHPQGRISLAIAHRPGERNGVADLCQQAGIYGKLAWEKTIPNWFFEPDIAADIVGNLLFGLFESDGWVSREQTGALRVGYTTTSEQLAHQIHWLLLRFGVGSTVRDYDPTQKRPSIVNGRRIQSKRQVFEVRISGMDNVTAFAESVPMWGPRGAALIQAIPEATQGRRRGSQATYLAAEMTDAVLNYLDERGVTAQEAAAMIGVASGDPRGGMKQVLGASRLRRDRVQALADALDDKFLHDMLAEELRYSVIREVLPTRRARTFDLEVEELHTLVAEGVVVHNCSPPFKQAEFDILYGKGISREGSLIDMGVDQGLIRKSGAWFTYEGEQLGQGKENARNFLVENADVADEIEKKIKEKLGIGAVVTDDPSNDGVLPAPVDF
Mtb growth: M. tuberculosis H37Rv growth inhibitors, H37Rv strain (AID 1626) | M. tuberculosis H37Rv growth inhibition; higher % means a stronger effect | one-dose inhibition, % at 10 µM; IC50 in µM for titrated hits | hit rate 0.95% among 220,000;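 active means confirmed in a dose series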;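 further: bacteria incubated seven days before Alamar blue readout; 0% = bacteria only wells and 100% = bacteria with antibiotic wells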
Mtb bLac sens: beta-lactam sensitization of Mtb H37Rv. M. tuberculosis H37Rv growth with meropenem, percent inhibition; hits of this screen are not shown here. inhibition, % at 25 µM. hit rate 0.27% among 330,000. AID 434955;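 active means about 74% or more and at least 40 points above the plate without the antibiotic, then above 30% in a dose series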;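 further: growth measured after seven days incubation then overnight dye step; 0% = bacteria only wells and 100% = bacteria with antibiotic; twin plates without the antibiotic show which effects depend on it; some results filed as inactive read as strong as hits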
Arbovirus anti: blocks arbovirus infection; hit rate 0.37% among 200,000; arbovirus infection cell-based antiviral screen; AID 1251; inhibition, % at 10 µM;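 active means inhibition from about 30%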;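 further: bluetongue infection of BSR cells; cell survival read as ATP light after 72 h; 0% = infected wells without compound and 100% = uninfected wells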
YopH PTP inh: blocks Yersinia enterocolitica YopH tyrosine phosphatase; fluorescence Ex485/Em525; AID 898; inhibition, %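 (about 10 µM by stock and volumes)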; hit rate 0.16% among 140,000;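 active means inhibition of 50% or more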;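 further: controls were vehicle for no effect and minimum signal wells for full effect; inactives centre near -20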
Arbovirus anti repeat: second read-out of Arbovirus anti, no call of its own (marks repeat the call); inhibition, %; measured here: 10K subset replicate screen; many hits read low in the repeat;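 first of two repeat runs on a subset; 0% = infected and 100% = uninfected wells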
Starred values were filed as active, the others as inactive; . = not tested or not shown. Not all compounds are listed; count on the stated rates, not on these rows.

SMILES | RecA intein inh | Mtb growth | Mtb bLac sens | Arbovirus anti | YopH PTP inh | others
Cc1cc2c(cc1S(=O)(=O)CCC(=O)NC1CCC(C)CC1)OCC(=O)N2 (stereo unspecified) | 3.9 | . | 6 | . | .
Cc1nc2ccccc2c(=O)n1-c1cccc(NC(=O)c2cccs2)c1 | -0.1 | . | 0 | . | .
COC(=O)c1ccc(Oc2ccc3nncn3n2)cc1 | 0.8 | 1% | -1 | 4 | -34
CC(=O)Nc1ccc(S(=O)(=O)N(C)CC(=O)OCC(=O)Nc2ccc3c(c2)OCO3)cc1 | 0.3 | -2% | -6 | 0 | -29
Cc1ccc(-c2nc(NCc3ccco3)n(C(=O)c3ccco3)n2)cc1 | -0.8 | 4% | -6 | -6 | .
CC(C)(C)NC(=O)C(=O)NCc1ccccn1 | -0.6 | 0% | 4 | 6 | .
Cn1cnnc1SCC(=O)c1c(N)n(Cc2ccccc2)c(=O)n(C)c1=O | 0.3 | 4% | 2 | 5 | .
CC(=O)Nc1ccc(N/C=C(\C=O)c2nc3ccccc3o2)cc1 | -5.4 | -8% | 3 | -2 | .
COc1cccc(CNC(=O)CCCn2c(=S)[nH]c3cc4c(cc3c2=O)OCO4)c1 | 1.7 | . | -2 | . | .
COC(=O)c1cccc(NC(=O)Nc2ccc(Cl)cc2Cl)c1 | 1.9 | . | -7 | . | .
Nc1nc(NC(=O)c2ccc(F)cc2)ns1 | -1.7 | . | -3 | . | .
COc1ccccc1CNC(=O)COC(=O)c1cnccn1 | -4.3 | 2% | 1 | 1 | -25
CCCCn1c(N)c(N(CCOC)C(=O)c2cnccn2)c(=O)[nH]c1=O | -0.6 | . | -8 | . | .
CC(C)OC(=O)Nc1ccc2c(c1)N(C(=O)CCN1CCN(CCO)CC1)c1ccccc1CC2 | 0.8 | -1% | -4 | 1 | .
CCn1c(SCC(=O)N2CCC(C)CC2)nc2c1c(=O)n(C)c(=O)n2C | 0.8 | . | -5 | . | .
C=CCSc1nc(=O)n2ccccc2n1 | 0.3 | 2% | 1 | 8 | .
O=C(Nc1c(C(=O)O)[nH]c2ccccc12)NC1CCCCC1 | 3.6 | -2% | -1 | -8 | -38
Nc1cc(CN2C(=O)c3ccccc3C2=O)cc(Cl)c1O | -1.9 | 1% | -5 | -1 | -17
O=c1c2c3c(sc2ncn1Cc1ccc(F)cc1)CCC3 | 7.5 | 7% | 7 | -4 | -2
O=C(NNC(=O)c1ccccc1O)c1ccc(S(=O)(=O)Nc2ccccc2)cc1 | -0.1 | . | 6 | . | .
Nc1c(Cl)cc(C2=NCCn3nc4ccccc4c32)cc1Cl | 4.1 | . | -6 | . | .
CCOC(=O)C1=C(N)OC2=C(C(=O)CC(C)C2)C1c1cccnc1 (stereo unspecified) | -2.2 | -5% | 2 | 1 | -21
CC(=O)c1cccc(N=C2NC(=O)CS2)c1 | -2.5 | 4% | -3 | 4 | 0
O=C(Cn1ncc(Cl)c(Cl)c1=O)NCC1CCCCC1 | . | -3% | 69 | -43 | -18
CC(C)(C)c1[nH]nc2c1C(c1ccc(OC(=O)c3ccco3)cc1)C(C#N)=C(N)O2 (stereo unspecified) | -2.3 | -3% | 0 | -4 | -24
Clc1ccc(COc2cccc(CNCc3ccncc3)c2)cc1 | -0.4 | 7% | 83 | -10 | .
Cc1ccc(C(=O)Nn2cnnc2)c(Cl)c1 | -5.2 | . | 0 | . | .
CCc1ccc(NC(=O)[C@H](C)NC(=O)C2CCN(C(=O)[C@@H](NC(=O)OC(C)(C)C)C(C)C)CC2)cc1 | -2.2 | . | 1 | . | .
COc1ccc(OC)c(C(c2nnnn2CCc2ccccc2)N2CCN(c3ccccc3)CC2)c1 (stereo unspecified) | 7.0 | 8% | 3 | 2 | -35
COc1ccc(S(=O)(=O)N(C)CC(=O)NCc2cccnc2)cc1Cl | -5.4 | -1% | -3 | 6 | -10
Cn1cccc1/C=N/n1c(-c2ccc(Cl)cc2)n[nH]c1=S | 1.2 | 5% | 7 | -17 | -35
COc1ccc(NC(=O)CCC(=O)N/N=C/c2ccncc2)cc1 | . | -8% | -6 | . | .
O=C1CCc2cc(S(=O)(=O)N3CCCCC3)cc3c2N1CC3 | 0.7 | . | -7 | . | .
Cc1n[nH]c(C)c1CCC(=O)N/N=C/c1c(C)[nH]c2ccccc12 | -1.0 | . | -2 | . | .
CCn1c(CCNC(=O)c2ccc(C)cc2)n[nH]c1=S | 1.3 | -4% | -6 | -1 | -36
CCCCN(C(=O)c1cc(OC)c(OC)c(OC)c1)C1=CC2CCC(C1)N2C (stereo unspecified) | -0.7 | -3% | -6 | 2 | -46
O=C(CCS(=O)(=O)c1cccc2nonc12)NC1CCCCCC1 | -0.6 | -6% | -1 | 7 | -30 | Arbovirus anti repeat=4
Cc1ccc(C(=O)N/C(=C/C=C\c2ccccc2)C(=O)NCc2ccco2)cc1 | 7.8 | 16% | -1 | 2 | -42
CCCn1c(SCC(=O)Nc2cccc(C)n2)nnc1C(C)C | -1.8 | -14% | -5 | 5 | .
C=CCn1c(N)cc(=O)nc1SC(C)C(=O)Nc1ccc(C(=O)OCC)cc1 (stereo unspecified) | 0.9 | . | 17 | . | .
Cc1ccccc1OCC(=O)Nc1ccc(N2CCN(C(=O)C(C)C)CC2)c(Cl)c1 | 3.7 | 5% | 98 | -14 | -50
Cc1cc(C)n2[nH]c(=O)c(N=Nc3ccc(S(N)(=O)=O)cc3)c2n1 | 19 | -1% | -8 | 0 | .
COc1ccc(NC(=O)CSc2n[nH]c(C)c2[N+](=O)[O-])cc1 | -1.2 | 86% | 87 | -2 | .
O=C(CCC(=O)c1ccc(F)cc1)NC1CCCN(Cc2ccccc2F)C1 (stereo unspecified) | 0.6 | . | -9 | . | .
Cn1c(C(=O)OCC(=O)NCc2ccco2)cc2sccc21 | 0.5 | 2% | -5 | -15 | -42
COC(=O)N/N=C1\CCCc2ccccc21 | 0.5 | -9% | -3 | 1 | -15
O=c1[nH]c(CN2CCN(S(=O)(=O)c3ccc(Cl)cc3)CC2)nc2cc(Cl)ccc12 | -1.6 | -2% | -1 | 10 | -37
Cc1ccc(-c2cnc3ccccc3n2)cc1C | 1.2 | . | 8 | . | .

Already shown: entries from further up.
SMILES | RecA intein inh | Mtb growth | Mtb bLac sens | Arbovirus anti | YopH PTP inh | others
CCCCN(C(=O)c1cc(OC)c(OC)c(OC)c1)C1=CC2CCC(C1)N2C (stereo unspecified) | -0.7 | -3% | -6 | 2 | -46
O=C(CCS(=O)(=O)c1cccc2nonc12)NC1CCCCCC1 | -0.6 | -6% | -1 | 7 | -30 | Arbovirus anti repeat=4
Cc1ccc(C(=O)N/C(=C/C=C\c2ccccc2)C(=O)NCc2ccco2)cc1 | 7.8 | 16% | -1 | 2 | -42
CCCn1c(SCC(=O)Nc2cccc(C)n2)nnc1C(C)C | -1.8 | -14% | -5 | 5 | .
C=CCn1c(N)cc(=O)nc1SC(C)C(=O)Nc1ccc(C(=O)OCC)cc1 (stereo unspecified) | 0.9 | . | 17 | . | .
Cc1ccccc1OCC(=O)Nc1ccc(N2CCN(C(=O)C(C)C)CC2)c(Cl)c1 | 3.7 | 5% | 98 | -14 | -50
Cc1cc(C)n2[nH]c(=O)c(N=Nc3ccc(S(N)(=O)=O)cc3)c2n1 | 19 | -1% | -8 | 0 | .
COc1ccc(NC(=O)CSc2n[nH]c(C)c2[N+](=O)[O-])cc1 | -1.2 | 86% | 87 | -2 | .
O=C(CCC(=O)c1ccc(F)cc1)NC1CCCN(Cc2ccccc2F)C1 (stereo unspecified) | 0.6 | . | -9 | . | .
Cn1c(C(=O)OCC(=O)NCc2ccco2)cc2sccc21 | 0.5 | 2% | -5 | -15 | -42
COC(=O)N/N=C1\CCCc2ccccc21 | 0.5 | -9% | -3 | 1 | -15
O=c1[nH]c(CN2CCN(S(=O)(=O)c3ccc(Cl)cc3)CC2)nc2cc(Cl)ccc12 | -1.6 | -2% | -1 | 10 | -37
Cc1ccc(-c2cnc3ccccc3n2)cc1C | 1.2 | . | 8 | . | .

(continued)
SMILES | RecA intein inh | Mtb growth | Mtb bLac sens | Arbovirus anti | YopH PTP inh | others
CC1=C(C(=O)OCC2CCCCC2)C(c2ccccc2F)NC(=O)N1 (stereo unspecified) | -1.4 | . | 1 | . | .
Cc1cc(C)n(CCNC(=O)c2cc(COc3ccc4ncccc4c3)on2)n1 | -1.9 | 6% | 1 | . | .
Cc1ccc(Nc2cc(C(=O)NCCCN3CCOCC3)c3ccccc3n2)cc1C | -0.6 | . | 6 | . | .
CCCCn1c(N)c(N(CCC(C)C)C(=O)CSc2nnc(Nc3ccccc3)s2)c(=O)[nH]c1=O | -2.2 | 11% | 1 | 3 | .
COc1ccccc1N1CCN(C(=O)CSc2nc3ccccc3nc2N2CCCCC2)CC1 | 7.4 | . | -2 | . | .
CCCCn1c(SCC(=O)N2CCCc3ccccc32)nc2c1c(=O)n(C)c(=O)n2C | 6.7 | -4% | 0 | 1 | -1
COc1ccccc1-c1ccc(SCc2cccc(F)c2)nn1 | 7.0 | 10% | -8 | 1 | .
Cc1ccc2ccc(C(Nc3ccccn3)c3ccccc3)c(O)c2n1 (stereo unspecified) | 2.6 | 2% | 11 | -31 | -15
Cc1ccc(NCc2n[nH]c(=S)n2-c2ccccc2)c(C)c1 | -4.1 | 2% | 4 | 11 | .
COc1cc(OC)c(NC(=O)N2CCOCC2)cc1Cl | -1.3 | . | 7 | . | .
C#CCOCCOCCOCCNc1nc(N2CCN(C(=O)Cn3cc(CC(C)O)nn3)CC2)nc(N2CCN(C(=O)[C@H](C)n3cc(CCCN=C(N)N)nn3)CC2)n1 (stereo partly specified) | 1.1 | -6% | -5 | 9 | -14
CCOc1ccc(NC2c3ccccc3C(=O)N2Cc2ccc3c(c2)OCO3)cc1 (stereo unspecified) | 8.2 | 75% | -6 | -8 | -7
COc1ccc2cnnc(SCC(=O)Nc3ccc(C(=O)O)cc3)c2c1OC | -3.4 | 6% | -3 | -9 | -10
O=C1N=c2ccccc2=C1c1sc(Nc2ccc(O)cc2)nc1O | . | 1% | . | 36* | .
O=C(NCc1ccco1)C1CCCN(S(=O)(=O)c2cccc3nonc23)C1 (stereo unspecified) | 3.2 | -6% | 4 | 4 | 1
CC(=Nc1ccc(Br)cc1)c1sc2ccccc2c1O | -4.2 | 9% | 5 | . | .
O=C(O)CSc1nnc(-c2ccc(S(=O)(=O)N3CCCC3)cc2)n1Cc1ccco1 | -1.2 | -7% | -3 | 3 | -24
CC(Sc1ccccc1)C(=O)NCCc1ccccc1 (stereo unspecified) | 4.2 | . | -2 | . | .
O=C(CC1SC(=NC2CCCCC2)NC1=O)Nc1ccccc1 (stereo unspecified) | -1.3 | -11% | 3 | 0 | -16
CCC1CCCCN1C(=O)COC(=O)c1n[nH]c2ccccc12 (stereo unspecified) | . | -3% | -1 | 0 | -7
Cc1occc1C(=O)N1CCCC(Nc2ccc(F)cc2)C1 (stereo unspecified) | 1.0 | . | -2 | . | .
CCOC(=O)CSc1nnc(-c2c[nH]c3ccccc23)o1 | 2.3 | . | 94 | . | .
Cc1nc(C)c(-c2ccc(SCc3ccccc3C)nn2)s1 | 11 | . | -2 | . | .
Cc1cccc(-n2c(C)cc(/C=C3/C(=N)N4C(c5ccccc5)=CSC4=NC3=O)c2C)c1 | -2.1 | 54% | 95 | -13 | -12
Cc1cccc(NC(=O)Cc2noc3ccccc23)c1 | -0.7 | 0% | -12 | -3 | -16
COc1ccc(C(Nc2cc(C)ccn2)c2ccc3ccc(C)nc3c2O)cc1 (stereo unspecified) | -3.1 | -2% | 58 | . | .
O=C(NN1CCOCC1)c1ccc(Cl)cc1 | -1.1 | 3% | -8 | 0 | -23
Cc1ccccc1OCC(=O)NCCCNC(=O)c1ccco1 | -0.3 | . | -12 | . | .
O=C(CCC(=O)Nc1ccc(F)cc1)N/N=C/c1c[nH]c2ccccc12 | -1.2 | -11% | -8 | -8 | .
CN(C(=S)NC(=O)c1ccccc1)C1CCCCC1 | -2.3 | . | 75 | . | .
CCOC(=O)c1c(N2C(=O)C3CC(C)=C(C)CC3C2=O)sc(C)c1C (stereo unspecified) | 2.0 | -1% | 6 | 2 | 16
O=C1C2C3C=CC(C4CC34)C2C(=O)N1CCCCN1CCN(c2ccc(F)cc2)CC1 (stereo unspecified) | 3.4 | . | -6 | . | .
O=C(CSc1nnc(CCCN2C(=O)c3cccc4cccc(c34)C2=O)n1-c1ccccc1)N1CCCCC1 | 2.1 | 0% | 2 | 1 | -19
O=C(Nc1ccc2c(c1)OCO2)c1cccc(S(=O)(=O)N2CCCC2)c1 | -2.6 | -9% | -6 | 5 | 5
CCCC(=O)Nc1ccc2c(c1)nc(CN1CCCC1)n2C | 3.4 | -4% | -13 | 2 | -22
